Compound activity from PubChem BioAssay.
AID504770: growth inhibition of E. coli YBA685, primary screen, V. cholerae RctB inhibitors. E. coli YBA685 rctB-dependent plasmid, OD600 growth, 3 h; active compounds read low. z-score (test concentration not listed). actives 0.27% (n = 130,000). AID 504770, 2011;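 active means z-score under -2 on both plates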;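 further: wells of about 30 µL received 100 nL stock; score is relative to mean and SD of the test wells; the first replicate is given; strong numbers were not always called active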
Ba CapD inh: Bacillus anthracis CapD inhibitors, primary screen, biochemical, fluorescence intensity. z-score (concentration not given with the values). purified CapD enzyme, fluorescence intensity read-out; active compounds read low; some hits fall short of the stated cut. actives 0.23% (n = 140,000);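 active means z-score under -4 in either of two replicates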;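 further: stock transfer was 100 nL into about 40 µL; score is relative to mean and spread of the plate; one replicate is shown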
Starred values were filed as active, the others as inactive; / = no result given.

mol | AID504770 | Ba CapD inh
CCOC(=O)C1=C(C)C2C3C(=O)N(c4ccccc4[N+](=O)[O-])C(=O)C3C1(C)C1C(=O)N(c3ccccc3[N+](=O)[O-])C(=O)C21 (centres undefined) | / | -0.58
COc1ccc(OC(=O)c2snnc2C)cc1 | -0.75 | 0.045
NNC(=O)c1cc(-c2ccccc2)nn1-c1ccccc1 | -0.5 | 0.41
O=C1c2oc3ccccc3c(=O)c2C(c2ccc(Cl)cc2)N1c1ccccn1 (centres undefined) | 0.65 | 0.4
CN(Cc1ccccc1)c1csc2ccccc2c1=O | 0.5 | -2.3
Cc1cc(C)c2ccc(/C=N/O)nc2c1O | -1.1 | -0.46
CNc1nc(Cl)nc(Oc2ccc(=O)n(C)n2)n1 | -0.15 | 0.35
CC(C)c1ccc(NC(=O)N2CCCC2C(=O)Nc2ccc(-n3cnnn3)cc2)cc1 (centres undefined) | 0.05 | /
OC1(c2ccc(OC(F)F)cc2)CSC(=Nc2cccnc2)N1C1CC1 (centres undefined) | -0.8 | /
CC(=O)N1CCN(Cc2cnc(Cl)s2)CC1 | -0.5 | -0.19
O=C(NNC(=O)c1ccc(-c2ccccc2)cc1)OCC1CCOC1 (centres undefined) | / | 7.4
CCn1c(SC)nnc1C1CCN(CC(=O)N(c2ccccc2)c2ccccc2)CC1 | -0.5 | /
O=C(NCc1ccccc1C(F)(F)F)C1CCN(c2ncccn2)CC1 | 2.3 | 5.5
CCCCN(C)C(=O)CN1C(=O)c2cccnc2Oc2ccc(C)cc21 | 1.2 | -0.32
COc1ccc(N2CCN(C(=O)c3ccccc3I)CC2)cc1 | -0.2 | -0.21
N#Cc1c2c(c(NCCN3CCCCC3)n3c1nc1ccccc13)CCC2 | -0.75 | 0.31
C=CCn1c(-c2cccs2)nc2ccccc21 | -0.9 | 65
CCCC1=NN(c2ccccc2)C(=O)C1 | / | 0.43
CCN(Cc1ccccc1)S(=O)(=O)c1ccc(F)c(C(=O)Nc2cccc(Cl)c2)c1 | / | -0.69
Cc1nc(CSc2ccc(Cl)cc2)cc(NCc2ccc(Cl)cc2)n1 | / | -0.17
N#Cc1c(N)nc(-c2ccccc2)nc1C(F)(F)F | 0.95 | 1.3
c1ccc2c(c1)[nH]c1nc(NN=C3CCC(=NNc4nnc5c(n4)[nH]c4ccccc45)CC3)nnc12 | 0.3 | /
Cn1cc(/C=C/c2nc3ccccc3c(=O)n2-c2ccc([N+](=O)[O-])cc2)c2ccccc21 | / | -0.47
CCCN(CCC)S(=O)(=O)c1cc2[nH]c(=O)c(=O)[nH]c2cc1C | -1.1 | 69
O=C(CSCCS(=O)(=O)c1ccc(Cl)cc1)Nc1ccc(F)c(Cl)c1 | / | -0.02
C/C(=N\OCC(=O)N1c2ccccc2CC1C)c1ccc(S(=O)(=O)N(C)C)cc1 (centres undefined) | 0.45 | /
CC1=C(C(=O)OCc2ccc3c(c2)OCO3)C(c2ccc(N(C)C)cc2)NC(=O)N1 (centres undefined) | / | -0.13
COc1ccc(C2C(C(=O)Nc3ccc(C)cc3)=C(C)Nc3ncnn32)cc1OC (centres undefined) | / | 0.26
COc1ccc(-n2c(=O)c3c(n4c(SC)nnc24)-c2ccccc2CC32CCCCC2)cc1 | / | -0.2
COC(=O)C1C(c2ccccc2)C(C(=O)OC)S(=O)(=O)CS1(=O)=O (centres undefined) | / | -0.18
CCOC(=O)C1=C(O)/C(=C/c2ccc(N(CC)CC)cc2)SC1=Nc1ccc([N+](=O)[O-])cc1 | / | -0.74
O=c1[nH]c(CCl)nc2sc3c(c12)CCCC3 | -0.7 | 0.18
COc1cccc(NCCCCO)c1 | 0.1 | /
O=C(Cn1ncn2c(cc3ccccc32)c1=O)N1CCN(c2ccccc2)CC1 | 3 | 1.4
CCn1cc(S(=O)(=O)CC(=O)Nc2ccc3c(c2)OCCO3)c2ccccc21 | 0 | 0.66
CCc1ccc(-c2cc(C)no2)cc1S(=O)(=O)NCCCN1CCC(C)CC1 | -0.5 | -0.65
N#Cc1ccccc1CSCC(=O)N1CCN(c2ccccc2)CC1 | -0.8 | /
Cc1ccc(NC(=O)/C=C/c2ccc(Br)o2)cc1 | 0.25 | -0.68
O=C1CC(c2ccccc2)n2ncnc2N1 (centres undefined) | -1.1 | -0.61
CC1CCN(C(=O)Cn2ncc3c([nH]c4ccccc43)c2=O)CC1 | -0.25 | 3.6
CCCCc1cc(CCCC)n2nc(-c3ccccc3)cc2n1 | -0.85 | 21
CCc1nnc(NC(=O)CSc2nc(-c3cccs3)cc(C(F)(F)F)c2C#N)s1 | / | 18
CC(=O)Oc1ccc(C(=O)Nc2ccc3nc(-c4ccccc4)oc3c2)cc1 | / | 39
Cc1nc(C2COc3ccccc3O2)sc1C(=O)O (centres undefined) | -0.85 | -0.035
CC(=O)N1CCC(N(C(=O)CSCCNC(=O)c2ccccc2Cl)C2CC2)CC1 | / | -0.61
FC(F)(F)c1cccc(N2CCN(Cc3cccs3)CC2)c1 | 1.6 | -0.005
Cc1ccc(C2CC(=O)NC(SCC(=O)Nc3ccc(Br)cc3)=C2C#N)cc1 (centres undefined) | / | 0.77
COc1ccc(CNS(=O)(=O)c2ccc(C#N)cc2)cc1OC | / | -0.09
CC(C)(C)SC(=S)SCC(=O)c1ccc([N+](=O)[O-])cc1 | / | -0.87
COc1ccc2nc(N3CCCCC3)[nH]c2c1 | 0.1 | /
CCOC(=O)c1cnc(-c2ccccc2)nc1-c1ccncc1 | -0.55 | 0.23
CCCCCCCCCCCCCCCC[N+](C)(C)C | 0.5 | -0.09
CCc1cc2c(=O)n(Cc3ccco3)c(SCC(=O)NC3CCCC3)nc2s1 | -0.5 | /
CC(O)CNCc1ccccc1OCc1ccccc1F (centres undefined) | -0.7 | /
C=CCOC(=O)C1=C(C)NC(C)=C(C(=O)OCC=C)C1c1cn(-c2ccccc2)nc1-c1cccs1 | / | 4.6
COc1ccccc1C(=O)Nc1nc2c(s1)CC(C)CC2 (centres undefined) | 2.2 | 1.3
COC(=O)COc1cccc2c1OC(C)(C)C2 | -0.5 | 0.17
O=C(COc1ccc(Cl)cc1Cl)NC1=NCCS1 | 0.35 | -0.48
CC(C)c1c(C#N)c(N)nc(SCC(N)=O)c1C#N | -0.4 | 32
COc1ccc(-c2cnn(-c3ccc(NC(=O)C(c4ccccc4)c4ccccc4)cc3)c2)cc1 | / | 0.07

Whole records, looked up by structure. Order of values: AID504770	Ba CapD inh
CC(O)CNCc1ccccc1OCc1ccccc1F (centres undefined) in the list: -0.7	/
C=CCOC(=O)C1=C(C)NC(C)=C(C(=O)OCC=C)C1c1cn(-c2ccccc2)nc1-c1cccs1 in the list: /	4.6
COc1ccc(-c2cnn(-c3ccc(NC(=O)C(c4ccccc4)c4ccccc4)cc3)c2)cc1 in the list: /	0.07
CC(C)(C)SC(=S)SCC(=O)c1ccc([N+](=O)[O-])cc1 in the list: /	-0.87
CCc1nnc(NC(=O)CSc2nc(-c3cccs3)cc(C(F)(F)F)c2C#N)s1 in the list: /	18

New compounds follow.
mol | AID504770 | Ba CapD inh
CCOC(=O)/C(N=Nc1ccccc1C)=C(\C)O | / | -1.7
CC(C)Sc1nc2c(c(=O)[nH]1)C(c1cccs1)C1=C(CC(C)(C)CC1=O)N2 (centres undefined) | -1 | /
CCOc1ccc(C2C(N3C(=O)c4c(Cl)c(Cl)c(Cl)c(Cl)c4C3=O)C(=O)N2c2ccc(OCC)cc2)cc1 (centres undefined) | / | -0.78
O=C(CCN1CCc2ccccc21)NCC1CCCO1 (centres undefined) | / | 3
C/C=C(\C(=O)O)c1ccccc1 | 0.2 | 0.07
O=C(O)CCS/C=C/c1ccccc1 | / | 0.68
Cc1ccc(CNC(=O)Nc2ccccc2)cc1 | -0.45 | /
CCCC(C(=O)Nc1ccc(OCC)cc1)N1Cc2ccccc2C1=O (centres undefined) | -0.95 | 0.26
[O-][n+]1onc2c1CCc1c-2nc(-c2ccccc2)n1O | -0.35 | -0.52
O=C(CSc1ccc(-c2ccncc2)nn1)N1CCCc2ccccc21 | 0.6 | 0.01
CCc1ccc(S(=O)(=O)NCc2csc(-c3cccnc3)n2)s1 | 0.15 | /
N#Cc1ccc(NC(=O)COC(=O)CCc2nc3ccccc3[nH]c2=O)cc1 | -0.15 | /
CN1C(N)=NC(=O)C12COC(c1cccnc1)OC2 (centres undefined) | -0.2 | 0.035
COC(=O)c1c(NC(=O)CCN2CCOCC2)sc2c1CCCC2 | 0.25 | /
O=C(c1sccc1Cl)N1CCN(Cc2ccc3c(c2)OCO3)CC1 | 0.45 | -0.075
CC1(C)OCC(NS(=O)(=O)c2cc(Cl)sc2Cl)C(c2ccccc2)O1 (centres undefined) | / | 0.04
O=C1N/C(=N\O)S/C1=C/c1ccc(O)cc1 | -0.4 | 0.06
CCN(CC)S(=O)(=O)c1ccc2c(c1)nc(CC(=O)O)n2C | 0.5 | /
Cc1nnc(Sc2cc(C(=O)NC3CC3)c3ccccc3n2)s1 | 0.15 | -0.4
O=C(O)C1(c2ccccc2)CCCN1 (centres undefined) | -0.45 | /

Exported field by field: three of the compounds above
> N#Cc1ccc(NC(=O)COC(=O)CCc2nc3ccccc3[nH]c2=O)cc1
- AID504770 = -0.15
- Ba CapD inh = /
> CN1C(N)=NC(=O)C12COC(c1cccnc1)OC2 (centres undefined)
- AID504770 = -0.2
- Ba CapD inh = 0.035
> COC(=O)c1c(NC(=O)CCN2CCOCC2)sc2c1CCCC2
- AID504770 = 0.25
- Ba CapD inh = /

The list continues.
mol | AID504770 | Ba CapD inh
CCOC(=O)C(Cc1c[nH]c2ccccc12)NC(=O)C(Cc1ccc(N(CCCl)CCCl)cc1)NC(C)=O (centres undefined) | / | -0.035
CCN(CC)C(=O)c1cccc(-c2nnc(-c3ccccc3)o2)c1 | 0.25 | 0.06
CCCCn1c(SCC(=O)Nc2ccc(OC)cc2)nc2ccc(N3CCOCC3)cc2c1=O | 0.15 | 0.36
c1ccc2c(c1)oc1c(NC3CCCCC3)ncnc12 | / | 0.87
CCNC(=O)Nc1cc(S(C)(=O)=O)ccc1N1CCC(C(=O)OCC)CC1 | / | 0.98
Cc1ccc(-n2ncc(C(=O)N3CCOCC3)c2C2CCN(C(=O)OC(C)(C)C)CC2)cc1Cl | 0.05 | 0.17
CC(C)Nc1cc(C(F)(F)F)nc(-c2ccccn2)n1 | 1.6 | -0.35
CC1(C)CC(=O)C2=C(C1)N(c1cccc(O)c1)C(=O)CC2c1ccccc1 (centres undefined) | / | -0.3
Cc1c(NC(=O)CC2SC(=O)NC2=O)c(=O)n(-c2ccccc2)n1C (centres undefined) | / | -0.025
CSc1c(CC(=O)Nc2ccc(C)cc2)[nH]c2ccccc12 | 0.95 | -0.24
CCc1ccc(OCC(=O)c2c(O)c3ccccc3oc2=O)cc1 | -0.9 | 0.18
Cc1ccc(-c2nnc3n(Cc4ccc(F)cc4)c(=O)c4ccccc4n23)s1 | -1.2 | 2.1
O=C(CCN1C(=O)c2ccccc2C1=O)Nc1nncs1 | -0.6 | -0.03
CC(=O)Nc1scc(C)[n+]1C | -0.15 | 0.21
CC1CSC(Nc2ccccc2C(C)C)=N1 (centres undefined) | -0.85 | -0.66
Cc1cnc(C(=O)NC(c2ccccc2)c2ccccc2)cn1 | -0.4 | /
COC(=O)c1cc(OC)c(OC)cc1NC(=O)c1ccc(-c2ccccc2F)o1 | 1.7 | 7.4
O=S(=O)(Nc1nc2ccccc2nc1NCCc1ccccc1)c1ccc(Cl)cc1 | -0.1 | 5.2
COC(=O)C(Cc1c[nH]c2ccccc12)NC1OC(=O)c2c1ccc(OC)c2OC (centres undefined) | -0.55 | 1.2
Cc1ccc(S(=O)(=O)N(CCC#N)C2CCCCC2)c2nsnc12 | / | 0.39
CC(C)c1ccccc1NC(=O)COC(=O)Cn1nnc(-c2ccccc2)n1 | -0.6 | /
Cc1ccc(N2CC(=O)N(/N=C/c3ccc4c(c3)OCO4)CC2=O)cc1 | -0.95 | -0.4
CC(C)NC(=O)N(Cc1cccnc1)Cc1cccs1 | 0.45 | 0.41
Oc1ccc(C2Nc3ccc4ccccc4c3C3C=CCC32)cc1 (centres undefined) | / | 57
CC1(C)C/C(=N/NC(N)=S)c2ccoc2C1 | 1.9 | /
c1ccc2c(c1)nc(NC1CCCC1)c1nncn12 | -0.3 | -3.1
CN(C)S(=O)(=O)c1ccc2nc(NC(=O)c3cccs3)sc2c1 | 0.45 | 8
CCCS(=O)(=O)N1CCCC(C(=O)N2CCC3(CC2)OCCO3)C1 (centres undefined) | -1 | 0.33
Cc1ccc2c(c1)c(-c1ccccc1)c(-c1ccccc1)n2CC(O)CNc1ccccc1C (centres undefined) | / | 49
Cc1ccc(OCC(=O)OCC(N)=O)cc1C | 0 | -0.6
c1ccc2[nH]c(C34CC5CC(CC(C5)C3)C4)cc2c1 | -0.35 | 1.8
NC(=O)CS(=O)C(c1ccccc1)c1ccccc1 (centres undefined) | -0.05 | /
Cc1ccc(S(=O)(=O)NNc2ncnc3c(C)csc23)cc1 | -0.4 | 0.66
COc1ccccc1NC(=O)N1CCc2cccc(S(=O)(=O)N(C)C)c21 | / | 0.02
Cc1sc2nc(CN3CCOCC3)nc(NCCc3ccc(S(N)(=O)=O)cc3)c2c1C | -0.25 | /
CCCNC(=O)CN1C(=O)CSc2ncccc21 | -0.55 | 0.005
O=c1c2cncnc2[nH]n1-c1ccccc1 | -0.15 | -0.72
N#Cc1cc2c(nc1SCc1ccncc1)CCCCC2 | -0.8 | 0.34
COc1cc2nc(NC(=O)c3ccc(Cl)cc3)[nH]c(=O)c2cc1OC | 1.9 | 0.95
CCCCCOc1ccc(N2C(=O)CSC23C(=O)Nc2ccccc23)cc1 (centres undefined) | / | -0.17
CCOC(=O)C1=C(C)NC2=C(C(=O)C(C(=O)OCC)C(c3cccc(OC)c3)C2)C1c1ccccc1OC (centres undefined) | / | 3.2
FC(F)(F)c1ccccc1NC1=NCCCS1 | -0.15 | /
